VCAM-1 down imaging: inhibitors of TNFa-induced VCAM-1 surface display, imaging, high-content imaging, pooled HUVEC, TNFa stimulus (AID 456) | HUVEC TNFa-induced VCAM-1 surface expression, immunofluorescence imaging; numbers were filed only for top-ranked candidate wells | inhibition, % at 5 µM, or IC50 in µM where a hit was titrated | 10,000 compounds, 0.2% hits;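 active = top tenth filtered wells with inhibition above zero that passed visual or statistical confirmation; inactive = the rest, including hits rejected on review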;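 also: 0% = stimulated vehicle wells and 100% = unstimulated cells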
VCAM-1 down: suppression of endothelial VCAM-1 upregulation – cell-based, plate reader, pooled HUVEC, TNFa stimulus (AID 454); inhibition, % at 5 µM; HUVEC TNFa-induced VCAM-1 surface immunofluorescence, plate reader; numbers were filed only for top-ranked candidate wells; 10,000 compounds, 0.2% hits;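 active = compound among top-ranked inhibitors of TNF-induced VCAM-1 adhesion protein staining, with the hit upheld by image or statistical review; inactive = the rest, including hits rejected on review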;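 also: 0% = TNFa with vehicle and 100% = cells without TNFa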
VCAM-1 up imaging: boosters of cytokine-driven VCAM-1 levels – imaging, high-content imaging, pooled HUVEC, TNFa stimulus (AID 457); Pooled HUVEC, TNFa-induced VCAM-1 immunofluorescence imaging; hits of this screen are not shown here; calls only; 10,000 compounds, 0.2% hits;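 active = a top-ranked rise in VCAM-1 staining upheld on image or statistical review; inactive = the rest, including candidates rejected on review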;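 also: compounds tested at 5 µM in the well; cells exposed to compound for 24 hours before fixing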
FPR binder: ligands of human FPR, also counter-screen for FPRL1 ligands; P21462; FPR-expressing cells, fluorescent ligand binding, flow cytometry; 24,000 compounds, 0.74% hits; inhibition, %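 (tested at 6.7 µM)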;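 also: 0% = buffer wells and 100% = receptor blocker peptide wells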
Target sequence (P21462 whole entry, looked up): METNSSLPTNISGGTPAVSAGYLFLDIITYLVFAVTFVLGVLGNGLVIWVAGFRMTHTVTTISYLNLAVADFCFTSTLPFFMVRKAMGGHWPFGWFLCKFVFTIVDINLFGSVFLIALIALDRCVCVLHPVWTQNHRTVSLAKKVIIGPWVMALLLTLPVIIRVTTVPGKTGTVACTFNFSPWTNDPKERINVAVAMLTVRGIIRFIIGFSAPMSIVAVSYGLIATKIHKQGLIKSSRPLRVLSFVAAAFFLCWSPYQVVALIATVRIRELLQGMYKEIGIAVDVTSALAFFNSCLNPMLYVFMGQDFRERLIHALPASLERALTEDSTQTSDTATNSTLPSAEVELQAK
FPRL1 ligand: binds the human formylpeptide receptor-like-1 FPRL1; inhibition, %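 (tested at 6.7 µM)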; P25090; 24,000 compounds, 0.3% hits; AID 441; FPRL1-expressing cells, fluorescent ligand binding inhibition, flow cytometry;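 also: 0% = buffer alone and 100% = receptor blocker peptide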
Target sequence (P25090 whole entry, looked up): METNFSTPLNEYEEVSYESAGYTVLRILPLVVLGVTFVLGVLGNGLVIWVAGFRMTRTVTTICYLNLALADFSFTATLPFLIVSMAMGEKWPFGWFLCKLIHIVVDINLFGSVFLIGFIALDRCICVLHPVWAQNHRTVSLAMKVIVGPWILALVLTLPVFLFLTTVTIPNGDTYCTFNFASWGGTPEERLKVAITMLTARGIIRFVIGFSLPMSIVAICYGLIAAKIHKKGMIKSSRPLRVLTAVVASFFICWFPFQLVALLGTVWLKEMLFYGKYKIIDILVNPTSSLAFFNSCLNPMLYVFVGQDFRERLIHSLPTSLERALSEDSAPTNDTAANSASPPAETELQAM
* = called active by the depositor; i = inactive; x = no result given.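 The calls were made as follows, unless noted: active = mean above 30%; inconclusive = self-fluorescent; inactive = the rest.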

cpd	mol	VCAM-1 down imaging	VCAM-1 down	VCAM-1 up imaging	FPR binder	FPRL1 ligand
1	CCOC(=O)N1CCC(NC(=O)c2ccc(OC)c(CN3CC(=O)N4CCCC4C3=O)c2)CC1 (centres undefined)	i	i	i	-1	2
2	CCc1ccc(NC(=O)CSc2nnc(Cc3cccn3C)n2-c2ccc(OC)cc2)cc1	i	i	i	2	4
3	Cc1nc(C)c(C(=O)Nc2ccc(C)c(F)c2)o1	i	i	i	-5	-2
4	CCOCCCNC(=O)c1ccc(CS(=O)(=O)Cc2ccc(C)cc2)o1	x	x	x	1	-6
5	CC(C)(C)C(=O)Oc1cc(N)n(S(=O)(=O)c2ccc(F)cc2)n1	x	x	x	-2	0
6	CC(=O)N1C(=O)N(C)C2C1N(C(C)=O)C(=O)N2C (centres undefined)	i	i	i	-4	-3
7	COc1cc2c(cc1OC)C(C(=O)NCC1COc3ccccc3O1)C(c1cccnc1)N(C)C2=O (centres undefined)	x	x	x	9	-4
8	Cc1cc(C)n(Cc2ccccc2F)c(=O)c1C#N	x	x	x	-4	-6
9	CCS(=O)(=O)N1CCCC(C(=O)NCCN(C)Cc2ccccc2)C1 (centres undefined)	x	x	x	-4	11
10	CCN(CC)S(=O)(=O)c1ccc2c(c1)c(=O)c(C(=O)N1CCOCC1)cn2C	x	x	x	6	0
11	O=C(C1CCCCC1)N1CCN(S(=O)(=O)c2ccc(Br)cc2)CC1	x	x	x	-9	-4
12	Nc1nnc(C(=O)c2ccccc2N)s1	i	i	i	-10	-20
13	Cc1ccc(CCN2CC(C(=O)NCCN3CCCCCC3)CC2=O)cc1 (centres undefined)	x	x	x	6	-8
14	O=S(=O)(Cc1ccccc1)N1CCCCCC1	i	i	i	-6	-15
15	CN1C(=O)c2ccccc2C(C(=O)O)C1c1cn(C)c2ccccc12 (centres undefined)	x	x	x	-1	-6
16	Cc1ccc(S(=O)(=O)N2CCN(C(=O)CSc3nc4ccccc4c(=O)[nH]3)CC2)c(C)c1	i	i	i	3	-4
17	CC(C)(C)OC(=O)N1CC=C2C(C#N)=C(N)C(C#N)(C#N)[C@H](c3cccnc3)[C@H]2C1	i	i	i	21	11
18	CC1=C(C(=O)OC2CCCC2)C(c2ccc(C)o2)C2=C(CC(c3cccs3)CC2=O)N1 (centres undefined)	i	i	i	2	3
19	COc1cccc(-c2nnc(NC(C)=O)o2)c1	i	i	i	-5	5
20	Cc1oc2nc(SCCCC(=O)NCCCO)nc(N)c2c1C	i	i	i	-3	-2
21	CCc1ccccc1NC(=O)c1cnc2n(c1=O)CCS2	i	i	i	9	7
22	Cc1ccc(N2C(=O)c3ccccc3C2O)nc1 (centres undefined)	i	i	i	-1	-2
23	Cn1cc(CN2CCN(c3ccccc3)CC2)c2ccccc21	x	x	x	8	6
24	NC(=O)CSc1cn(CCNC(=O)c2cccs2)c2ccccc12	i	i	i	-1	4
25	CCCCN(C)CCCNC(=O)CS(=O)Cc1nc(-c2ccc(OC)c(OC)c2)oc1C (centres undefined)	x	x	x	8	-2
26	COc1cc(OC)cc(-c2nc3nc(C)c(CCC(=O)O)c(C)n3n2)c1	i	i	i	7	0
27	Cc1cccc(N2CCN(C(=O)c3cc4c(=O)[nH]c5ccccc5c4n3C)CC2)c1C	i	i	i	-8	-5
28	O=C(O)COc1ccc2occ(C(=O)c3ccccc3)c2c1	i	i	i	-4	-1
29	CCC(=O)Nc1ccc(S(=O)(=O)N2CCc3ccccc3C2)cc1	x	x	x	6	2
30	O=C(CS(=O)(=O)c1cn(Cc2cccc(F)c2)c2ccccc12)N1CCCCC1	x	x	x	-8	-5

cpd	mol	VCAM-1 down imaging	VCAM-1 down	VCAM-1 up imaging	FPR binder	FPRL1 ligand
31	COCCn1c(C)cc(C(=O)CSc2nnc3ccccn23)c1C	x	x	x	3	2
32	COc1ccccc1CNC(=O)C1CCCN1S(=O)(=O)c1cccc2cccnc12 (centres undefined)	x	x	x	-2	-2
33	CCCC(NC(=O)CNC(=O)C(C)(C)C)C(=O)O (centres undefined)	i	i	i	4	1
34	Cc1[nH]c(=O)cc2ccccc12	x	x	x	6	10
35	O=C(NC(C(=O)N1CCCC1C(=O)O)=C1CCCCC1)c1ccccc1 (centres undefined)	x	x	x	7	-2
36	COC(=O)C1CCN(C(=O)c2sc3nc(-c4ccccc4)cn3c2C)CC1	x	x	x	0	6
37	COc1cc(OC)cc(-c2nc3cc(C)ccc3o2)c1	i	i	i	-14	-16
38	Nc1ccc2c(c1)CCC2=O	x	x	x	-9	-13
39	Cc1cccc(C(=O)O)c1NC(=O)c1ccc(F)cc1	i	i	i	1	5
40	CN(C)c1cccc(C(=O)OCC(=O)NCc2ccco2)c1	i	i	i	-2	-6
41	COC(=O)c1ccc(CNC(=O)CSc2nc3sc(C)c(C)c3c(=O)n2C)o1	i	i	i	0	6
42	COc1ccc(C2C3=C(CCCC3=O)Nc3nc(-c4cc(OC)c(OC)c(OC)c4)nn32)cc1OC (centres undefined)	x	x	x	-3	-4
43	COc1ccc(-c2cnnn2-c2ccc(N)cc2)cc1OC	x	x	x	0	5
44	COc1ccc(S(=O)(=O)NCC(c2cccnc2)N2CCN(C)CC2)cc1C (centres undefined)	i	i	i	-4	2
45	COCCn1cc(C(=O)NCCCN2CCC(C)CC2)c2c3ccccc3n(C)c2c1=O	i	i	i	-7	-4
46	CC(=O)OC[C@H]1O[C@@H](n2ccc(=O)[nH]c2=S)C(OC(C)=O)C1OC(C)=O (some centres undefined)	x	x	x	1	-1
47	CCOc1ccccc1NC(=O)CN(c1cc(C)cc(C)c1)S(=O)(=O)c1c(C)noc1C	x	x	x	-3	2
48	O=C(Cn1cccc1)NCc1cccs1	x	x	x	-4	-4
49	Cc1ccc(NCC(O)C(O)C(O)CO)cc1C (centres undefined)	i	i	i	1	3
50	CCOC(=O)CSc1nc(C)cc(Oc2ccc(=O)n(C)n2)n1	x	x	x	4	6
51	Nc1nonc1-c1nc2ccccc2n1Cc1ccc(F)cc1Cl	x	x	x	-5	2
52	Cc1noc(NS(=O)(=O)c2ccc(NC(=O)CCC3CCCC3)cc2)c1C	i	i	i	1	-2
53	CCCCP(=O)(CCCC)c1ccccc1C(=O)O	i	i	i	2	2
54	Cn1c(=O)c2c(nc(CN3CCOCC3)n2CC(O)CO)n(C)c1=O (centres undefined)	i	i	i	-1	-2
55	CCOC(=O)c1cc2c(=O)n3cccc(C)c3nc2n(CCOC)c1=NC(=O)c1ccncc1	i	i	i	5	7
56	CN(C)c1nc(Nc2ccc(Cl)cc2)nc(OCC#N)n1	i	i	i	10	4
57	CCOC(=O)Cn1c2c(c(=N)c3ccccc31)CCC2	i	i	i	-3	2
58	COC(=O)c1cc(NC(=O)C2CC=CCC2C(=O)O)cc(C(=O)OC)c1 (centres undefined)	i	i	i	6	-14
59	CCOC(=O)c1nc(N2CCN(C(=O)OCC)CC2)c2c3c(sc2n1)CCCC3	x	x	x	2	-3
60	O=C(CCCN1C(=O)c2ccccc2C1=O)N1CCC(c2ccccc2)C1 (centres undefined)	i	i	i	1	9

Random excerpt: 5 entries already listed
cpd	mol	VCAM-1 down imaging	VCAM-1 down	VCAM-1 up imaging	FPR binder	FPRL1 ligand
37	COc1cc(OC)cc(-c2nc3cc(C)ccc3o2)c1	i	i	i	-14	-16
60	O=C(CCCN1C(=O)c2ccccc2C1=O)N1CCC(c2ccccc2)C1 (centres undefined)	i	i	i	1	9
57	CCOC(=O)Cn1c2c(c(=N)c3ccccc31)CCC2	i	i	i	-3	2
46	CC(=O)OC[C@H]1O[C@@H](n2ccc(=O)[nH]c2=S)C(OC(C)=O)C1OC(C)=O (some centres undefined)	x	x	x	1	-1
35	O=C(NC(C(=O)N1CCCC1C(=O)O)=C1CCCCC1)c1ccccc1 (centres undefined)	x	x	x	7	-2

Remaining list, next part:
cpd	mol	VCAM-1 down imaging	VCAM-1 down	VCAM-1 up imaging	FPR binder	FPRL1 ligand
61	COc1ccc(C2C(C(=O)NCc3ccccn3)c3cc(OC)c(OC)cc3C(=O)N2C)cc1 (centres undefined)	x	x	x	-2	1
62	CCc1c(C)nc2ncnn2c1N1CCC(C(=O)NCc2cccc(OC)c2)CC1	i	i	i	0	2
63	COc1ccccc1N(CN1CCCC1=O)C(=O)c1c(F)cccc1Cl	i	i	i	-1	7
64	COC(=O)c1ccccc1NC(=O)Cn1cc2c(n1)CCC(C)C2 (centres undefined)	x	x	x	-6	-7
65	CCOC(=O)C1CCCN(Cc2nc(N)nc(Nc3ccccc3)n2)C1 (centres undefined)	i	i	i	-4	-5
66	COc1ccc(CN2C(=O)CCC2(C)C(=O)NC2CCCCCC2)cc1 (centres undefined)	x	x	x	1	2
67	Cc1cc2c(nn1)CCC/C2=N\O	i	i	i	4	4
68	COC(=O)c1ccccc1NC(=O)CN1CCC(n2nnc3cc(F)ccc32)CC1	i	i	i	-2	-3
69	CC(NC(=O)c1ccc2c(c1)OCO2)C(c1cccs1)N1CCOCC1 (centres undefined)	i	i	i	-4	-5
70	O=C1CC(c2ccccc2)CC(O)=C1C=NCc1ccco1 (centres undefined)	x	x	x	0	-6
71	Cc1cccc2c1CC(C)(C)N=C2C1=C(O)CCCC1=O	x	x	x	-6	2
72	Nc1nc2n(n1)C(c1cccc(Cl)c1)CC(c1ccc(F)cc1)N2 (centres undefined)	i	i	i	4	-2
73	CCOC(=O)c1[nH]nc(N)c1NC(=O)c1ccc(Cl)cc1Cl	i	i	i	-7	-2
74	CC(=O)N(C(C)=O)c1ncc2c([nH]c3ccccc32)c1C#N	i	i	i	5	2
75	CCC1Oc2ccccc2N(CC(=O)NCCCN2CCCCC2CC)C1=O (centres undefined)	x	x	x	-4	-3
76	CSc1nc2c(c(=O)n1-c1ccc(F)cc1)SCC2	x	x	x	-7	-11
77	COC(=O)c1cc(NC2c3ncccc3C(=O)N2Cc2ccccc2)cc(C(=O)OC)c1 (centres undefined)	x	x	x	-3	-11
78	CN(C1CCS(=O)(=O)C1)S(=O)C12CC3CC(CC(C3)C1)C2 (centres undefined)	i	i	i	0	-1
79	Cc1ccc(S(=O)(=O)N2C(=O)CCC2C(=O)Nc2ccc3c(c2)OCCO3)cc1 (centres undefined)	i	i	i	1	-1
80	Cn1c(=O)[nH]c(=O)c2c1nc(N1CCc3ccccc3C1)n2CCSc1nc2ccccc2s1	i	i	i	0	-1
81	COc1cc(C2N(c3ccccn3)C(=O)C3CCCN32)cc(OC)c1OC (centres undefined)	x	x	x	2	-6
82	Cc1ccc(S(=O)(=O)NCCN=C(CN2CCCC2)NS(=O)(=O)c2ccc(C)cc2)cc1	x	x	x	5	-3
83	COC(=O)c1cccc(NC(=O)CN2CCN(Cc3ccccc3)CC2)c1	i	i	i	17	-1
84	Cc1ccc(NC(=O)N(Cc2ccco2)C(C)c2ccco2)cc1C (centres undefined)	x	x	x	7	3
85	CCOC(=O)c1cnn(CCOC(=O)C2CC2)c1NC(=O)C1CC1	x	x	x	5	2
86	CSc1nc2c(c(=O)n1-c1ccccc1)SCC2	x	x	x	-1	0
87	COc1ccc(NC(=O)CC2CCCCC2)cc1OC	i	i	i	11	1
88	O=C(CCn1c(=O)oc2ccccc21)NCCCN1CCN(c2ccc(F)cc2)CC1	x	x	x	6	-1
89	O=C(CCn1c(=O)oc2ccccc21)N1CCCCCC1	i	i	i	4	3
90	CCOC(=O)CNC(=O)c1nn(-c2ccc(OCC)cc2)c(=O)c2ccccc12	x	x	x	1	2

cpd	mol	VCAM-1 down imaging	VCAM-1 down	VCAM-1 up imaging	FPR binder	FPRL1 ligand
91	COc1ccc2sc(NC(=O)c3ccco3)nc2c1	x	x	x	1	6
92	CCOc1ccc(N2C(=O)c3cccnc3C2Nc2ccc(C)cc2)cc1 (centres undefined)	x	x	x	8	2
93	CCCS(=O)(=O)N1CCCC(C(=O)NCCN(CC)CC)C1 (centres undefined)	x	x	x	2	1
94	CCOC(=O)c1c(C)c(C(=O)NC(C)COC)c(C)n1CC (centres undefined)	x	x	x	-9	-1

Arranged by count of non-hydrogen atoms (smallest number first): some entries from above
cpd	mol	VCAM-1 down imaging	VCAM-1 down	VCAM-1 up imaging	FPR binder	FPRL1 ligand
19	COc1cccc(-c2nnc(NC(C)=O)o2)c1	i	i	i	-5	5
56	CN(C)c1nc(Nc2ccc(Cl)cc2)nc(OCC#N)n1	i	i	i	10	4
70	O=C1CC(c2ccccc2)CC(O)=C1C=NCc1ccco1 (centres undefined)	x	x	x	0	-6
85	CCOC(=O)c1cnn(CCOC(=O)C2CC2)c1NC(=O)C1CC1	x	x	x	5	2
82	Cc1ccc(S(=O)(=O)NCCN=C(CN2CCCC2)NS(=O)(=O)c2ccc(C)cc2)cc1	x	x	x	5	-3

From PubChem BioAssay

Some of the compounds tested. The share of hits here may be higher or lower than overall.
